NPYLR7 agonist = activates Aedes aegypti NPYLR7 receptor; HEK293T NPYLR7/Galpha15, GCaMP6s calcium fluorescence; activation, % at 10 µM; 0.15% of 270,000 active; in the data active = activation above about 40%;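 also: 0% = vehicle and 100% = reference agonist at the receptor; some compounds past the cut are filed as inactive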
NPYLR7 agonist max-min = second read-out of NPYLR7 agonist, no call of its own (marks repeat the call); activation, %; measured here: Max-Min RFU normalised activation; some inactives read as strong as hits;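 span of the calcium signal over five minutes; 0% = vehicle and 100% = native peptide agonist; compound fluorescence can raise it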
* hit, by the source's call; & = joins results of further samples. Not all compounds are listed; count on the stated rates, not on these rows.

SMILES	NPYLR7 agonist	NPYLR7 agonist max-min
COc1ccc2[nH]c(=O)c(CN(C)CCc3scnc3C)cc2c1	8	4
Cc1nc(CC(=O)N(CC(F)(F)F)c2cccc(Cl)c2)cs1	1	0
CO[C@@H]1CO[C@H]2[C@@H]1OC[C@@H]2n1nnnc1C(C)C	-10	-12
C=CCOc1ccccc1CN1C[C@@H]2CNC[C@]2(C(=O)O)C1	-2	-5
O=C(O)CC1CNCCN(C(=O)c2cccc3nccnc23)C1 (stereo not drawn)	-4	-4
COCCn1c(SCc2cc(=O)n3ccsc3n2)nc2sc3c(c2c1=O)CCC3	3	11
Cc1cc(OC(=O)CC(C)C)c([N+](=O)[O-])c(=O)[nH]1	-3	1
COCCNC(=O)c1ccc(OC2CCN(Cc3cccc(SC)c3)CC2)c(Cl)c1	-3	-9
CCOC(=O)C1=C(C)N=c2s/c(=C/c3ccccc3F)c(=O)n2C1c1ccc(C)cc1 (stereo not drawn)	-2	-7
O=C(c1ccc(F)cc1)N1CC[C@@H](c2ccc3ccccc3c2)[C@H](O)C1	5	3
CCCCN1C(=O)NC(NS(=O)(=O)c2ccc(N)cc2)(C(F)(F)F)C1=O (stereo not drawn)	0	1
Cc1cc(C)c(-n2cnnc2)cc1N	0	-3
CN(Cc1cc(C2CC2)on1)Cc1cc2n(n1)CCNC2	15	11
Cc1cc2cc(CNC(=S)NCCc3ccccc3)ccc2n1C	7	11
Oc1ccc(N=Nc2ccc(Cl)cc2)c2cccnc12	0	2
CCN(CC)c1nc(N)c([N+](=O)[O-])c(N2CCN(Cc3ccccc3)CC2)n1	1	-1
CC(=O)Nc1cccc(C(=O)N(C)CCC(C)N2CCCC2)c1 (stereo not drawn)	12	-2
CC(=O)NCCNC(=O)c1ccc(Cl)c(S(=O)(=O)N2CCCC2)c1	-1	-2
CCN(CC)Cc1cccc(NC(=O)Cc2cc(C)sc2C)c1	3	1
CCC(CC)(NC(=O)CSc1ccc(C)cc1)C(F)(F)F	-7	-8

Looked up one by one from above:
SMILES	NPYLR7 agonist	NPYLR7 agonist max-min
Cc1cc(OC(=O)CC(C)C)c([N+](=O)[O-])c(=O)[nH]1	-3	1
CCN(CC)c1nc(N)c([N+](=O)[O-])c(N2CCN(Cc3ccccc3)CC2)n1	1	-1
CCN(CC)Cc1cccc(NC(=O)Cc2cc(C)sc2C)c1	3	1
CO[C@@H]1CO[C@H]2[C@@H]1OC[C@@H]2n1nnnc1C(C)C	-10	-12

Remaining list, next part:
SMILES	NPYLR7 agonist	NPYLR7 agonist max-min
Cc1ccc(-c2nc(OCC(C)C)nn2-c2ccc(NC(=O)c3cccc(Br)c3)cc2)cc1	26	21
CCCC(=O)C1=C(c2ccc(CC)cc2)N(C(=O)CCC)n2c(C)nnc2S1	2	-2
CNC(=O)CC1CCN(CCC(C)SC)CC1 (stereo not drawn)	7	5
O=C(NCC1CCCO1)[C@@]1(OCc2cccc(Cl)c2)CC(OCc2ccc(F)cc2)[C@H](O)[C@H](O)C1 (stereo partly drawn)	7	11
O=C(CSC(=S)N1CCOCC1)N1CCc2ccccc21	-2	-7
CN1CCN(C(=O)C(Cc2ccccc2)NC(=O)C2CC(c3ccc4c(c3)OCO4)=NO2)CC1 (stereo not drawn)	34	35
COc1cccc(C(=O)Nc2c(-c3cc(C)cc(C)c3)nc3ccccn23)c1	-9	1
Nc1c(C(=O)Nc2ccccc2C(F)(F)F)c2ccccn2c1C(=O)c1ccc(F)cc1	0	-4
CC(C)(C)c1ccc(-c2ccnc3nc(N4CCN(C(=O)c5ccc([N+](=O)[O-])o5)CC4)nn23)cc1	0	-2
O=C(CSc1ccc(NC(=O)C2CC2)nn1)NCc1ccc(F)cc1	-1	-3
COc1ccc(-c2nn(CC(=O)Nc3ccccc3)c(=O)c3nc(C)sc23)cc1OC	-2	-2
COc1ccc2nc(NC(=O)CN3C(=O)c4ccccc4C3=O)sc2c1	5	-4
CCOc1ncccc1CNC(=O)c1cc2c(s1)CCC2	2	1
CCN1CC(CN(C)Cc2cccc3c2OCCO3)Oc2ccccc21 (stereo not drawn)	8	-2
CCC1CCCCN1C(=O)C1C2C=CC3(CN(c4cccc(OC)c4)C(=O)C13)O2 (stereo not drawn)	1	12
COc1ccc(-c2csc(-n3[nH]c(C)c(N=Nc4cccc(C(F)(F)F)c4)c3=O)n2)cc1	-6	-11
CCOC(=O)c1ccccc1-c1c2ccc(=N)cc-2oc2cc(N)ccc12	120*	120*
Oc1ccc(-c2[nH]ncc2-c2ccc(Cl)cc2)c(O)c1	2	1
CC(C)(C)C(=O)C=c1[nH]c(=O)c(=Cc2cc(Br)cs2)s1	30	25
COc1cccc(NC(=O)Nc2ccc(Nc3ccc(-n4nc(C)cc4C)nn3)cc2)c1	-2	-13
Nc1nc2ncn(CC(O)CCl)c2c(=O)[nH]1 (stereo not drawn)	-6	-8
CC(=O)Nc1ccc(S(=O)(=O)NCC(c2ccsc2)N2CCCC2)cc1 (stereo not drawn)	4	-10
CNC(=O)CC1C(=O)NCCN1C(=O)c1cc2ccccc2n1C (stereo not drawn)	6	2
O=C(OCc1cc(-c2ccc3c(c2)OCO3)on1)c1cc2ccccc2o1	1	-1
CN(C(=O)CCc1cc(Cl)cs1)c1nccs1	22	22
O=C(COc1ccccc1F)NCC1CCN(S(=O)(=O)C2CC2)CC1	-9	-9
COc1ccccc1N1CCN(Cc2nc(-c3ccc4c(c3)OCO4)no2)C(C)C1 (stereo not drawn)	17	6
COc1cc(C=CC(=O)c2cc3ccccc3oc2=O)cc([N+](=O)[O-])c1O	13	7
CC(=O)c1c(C)[nH]c(C(=O)OCC(C)C)c1C	12	19
Cc1ccc(-n2cc(CN(C)CCc3c(C)n[nH]c3C)c(-c3ccc(F)cc3)n2)cc1	2	-6

31 compounds from above, arranged by SMILES length, lowest first.
SMILES	NPYLR7 agonist	NPYLR7 agonist max-min
Cc1cc(C)c(-n2cnnc2)cc1N	0	-3
CNC(=O)CC1CCN(CCC(C)SC)CC1 (stereo not drawn)	7	5
CN(C(=O)CCc1cc(Cl)cs1)c1nccs1	22	22
Nc1nc2ncn(CC(O)CCl)c2c(=O)[nH]1 (stereo not drawn)	-6	-8
CCOc1ncccc1CNC(=O)c1cc2c(s1)CCC2	2	1
O=C(CSC(=S)N1CCOCC1)N1CCc2ccccc21	-2	-7
CC(=O)c1c(C)[nH]c(C(=O)OCC(C)C)c1C	12	19
CN(Cc1cc(C2CC2)on1)Cc1cc2n(n1)CCNC2	15	11
CCN(CC)Cc1cccc(NC(=O)Cc2cc(C)sc2C)c1	3	1
O=C(O)CC1CNCCN(C(=O)c2cccc3nccnc23)C1 (stereo not drawn)	-4	-4
CCN1CC(CN(C)Cc2cccc3c2OCCO3)Oc2ccccc21 (stereo not drawn)	8	-2
CC(=O)Nc1cccc(C(=O)N(C)CCC(C)N2CCCC2)c1 (stereo not drawn)	12	-2
Cc1nc(CC(=O)N(CC(F)(F)F)c2cccc(Cl)c2)cs1	1	0
O=C(CSc1ccc(NC(=O)C2CC2)nn1)NCc1ccc(F)cc1	-1	-3
O=C(COc1ccccc1F)NCC1CCN(S(=O)(=O)C2CC2)CC1	-9	-9
COc1ccc2nc(NC(=O)CN3C(=O)c4ccccc4C3=O)sc2c1	5	-4
CC(C)(C)C(=O)C=c1[nH]c(=O)c(=Cc2cc(Br)cs2)s1	30	25
CCOC(=O)c1ccccc1-c1c2ccc(=N)cc-2oc2cc(N)ccc12	120*	120*
COCCNC(=O)c1ccc(OC2CCN(Cc3cccc(SC)c3)CC2)c(Cl)c1	-3	-9
CCCC(=O)C1=C(c2ccc(CC)cc2)N(C(=O)CCC)n2c(C)nnc2S1	2	-2
CCCCN1C(=O)NC(NS(=O)(=O)c2ccc(N)cc2)(C(F)(F)F)C1=O (stereo not drawn)	0	1
COc1cc(C=CC(=O)c2cc3ccccc3oc2=O)cc([N+](=O)[O-])c1O	13	7
COc1cccc(NC(=O)Nc2ccc(Nc3ccc(-n4nc(C)cc4C)nn3)cc2)c1	-2	-13
CCN(CC)c1nc(N)c([N+](=O)[O-])c(N2CCN(Cc3ccccc3)CC2)n1	1	-1
Nc1c(C(=O)Nc2ccccc2C(F)(F)F)c2ccccn2c1C(=O)c1ccc(F)cc1	0	-4
CCOC(=O)C1=C(C)N=c2s/c(=C/c3ccccc3F)c(=O)n2C1c1ccc(C)cc1 (stereo not drawn)	-2	-7
Cc1ccc(-c2nc(OCC(C)C)nn2-c2ccc(NC(=O)c3cccc(Br)c3)cc2)cc1	26	21
CN1CCN(C(=O)C(Cc2ccccc2)NC(=O)C2CC(c3ccc4c(c3)OCO4)=NO2)CC1 (stereo not drawn)	34	35
COc1ccc(-c2csc(-n3[nH]c(C)c(N=Nc4cccc(C(F)(F)F)c4)c3=O)n2)cc1	-6	-11
CC(C)(C)c1ccc(-c2ccnc3nc(N4CCN(C(=O)c5ccc([N+](=O)[O-])o5)CC4)nn23)cc1	0	-2
O=C(NCC1CCCO1)[C@@]1(OCc2cccc(Cl)c2)CC(OCc2ccc(F)cc2)[C@H](O)[C@H](O)C1 (stereo partly drawn)	7	11

Next structures.
SMILES	NPYLR7 agonist	NPYLR7 agonist max-min
CCc1ccccc1N1CC(C(=O)NCc2cccnc2OC(C)C)CC1=O (stereo not drawn)	-2	5
O=C(c1cc(COc2cncc(Cl)c2)on1)N1CCC(N2CCSCC2)CC1	11&-5	4&-6
Cc1ccc(S(=O)(=O)N2CCCC(OCc3ccccc3Cl)C2)cc1 (stereo not drawn)	-5	3
COc1ccc(S(=O)(=O)NCCc2csc3nc(-c4ccccc4F)nn23)c(OC)c1	0	-1
O=C(CC1CCc2ccccc21)N(CCO)Cc1nccs1 (stereo not drawn)	20	6
CCn1ncc(Cl)c1C(=O)NCc1cccnc1N1CCN(C)CC1	-3	-4
Nc1c(S(=O)(=O)c2cccs2)c2nc3ccccc3nc2n1/N=C\c1cccc(O)c1	8	6
Cc1ccccc1NC(=O)NCCNc1cc(-n2cccn2)ncn1	-8	-12
COc1ccc(CCN(Cc2ccc(C)o2)C(=O)CN(C(=O)Nc2cccc(F)c2)C(C)C)cc1OC	-7	-12
COCCNc1nc(NCCCN2CCCC2=O)c2sccc2n1	6	1
Cc1ccc(CSc2nc3c(c(=O)n2-c2ccc([N+](=O)[O-])cc2)SCC3)cc1	2	29
O=C(NCc1c(F)cccc1F)c1c(O)nc2sccn2c1=O	0	8
Cc1ccccc1-c1ccc(N2CCC(C(=O)Nc3cccnc3)CC2)nn1	-11	-16
CC(=NN1CCN(C2c3ccccc3-c3ccccc32)CC1)c1ccncc1	5	3
Cc1ccc(-c2ccncc2)cc1NC(=O)CC(C)(C)C(=O)O	6	5
CC(C)=NOC(C)C(=O)N1CCc2c(cnn2C(C)(C)C)C1 (stereo not drawn)	2	36
Cc1ccccc1CCC1CCCN(C(=O)Cn2cc(C)c(=O)[nH]c2=O)C1 (stereo not drawn)	4	1
COc1cc(OC)cc(C(=O)NCC(=O)NCCc2ccc3c(c2)OCO3)c1	0	8
O=C(Cn1nc(-c2ccccc2)c2sc(N3CCOCC3)nc2c1=O)Nc1ccccc1	-3	-8
C=CCN1C(=O)NC(c2ccccc2F)C2=C1CN(Cc1ccccn1)C2=O (stereo not drawn)	-1	6
O=c1n(CC2COCCO2)nc(C2CCNCC2)n1Cc1ccccc1 (stereo not drawn)	6	6
C=CCn1cc(CN2CC[C@@H](N3CCN(c4ccccc4F)CC3)[C@H](O)C2)c(C)n1	20	9
CN(c1cccc(C#N)c1)S(=O)(=O)c1cn[nH]c1C(C)(C)C	6	1
CC(C)c1nc(CCN(C)C(=O)CCN2CCCCO2)no1	-2	-6
O=C(CCCSc1ccc(NC(=O)c2cccs2)nn1)Nc1cccnc1	2	2
Cc1cc(C(=O)Nc2ccc(Cl)cc2F)nc2[nH]c(=O)[nH]c(=O)c12	-6	-6
Cc1cc(-c2nn(-c3ccccc3F)cc2CN(C)C(C)c2nccs2)c(C)s1 (stereo not drawn)	14	3
COc1ccc(C=C2N=C(c3cccc(C)c3)OC2=O)cc1Br	0	1
Cc1ccnc(SCc2cc(=O)c(OC(=O)Cc3ccc([N+](=O)[O-])cc3)co2)n1	-13	-12
COc1cc(-c2cnn3c(C)c(C(=O)NCC4CCCO4)cnc23)cc(OC)c1OC (stereo not drawn)	18	6
CC(CCc1ccccc1)NC(=O)c1csc(CSc2nnc(-c3ccco3)n2-c2ccccc2F)n1 (stereo not drawn)	-1	7
Cc1cccn2c(CC(=O)NCc3cn4c(n3)SCC4)cnc12	0	-2
Cc1ccsc1[C@@H]1CCN(C(=O)c2ccc(-c3ncn[nH]3)cc2)C[C@H]1O	21	10
O=C(CCNC(=O)c1ccccc1F)NCCc1cnc[nH]1	-4	-7
COc1cc(C(=O)N2CCNCC2C(=O)NCc2ccccn2)ccn1 (stereo not drawn)	11	8
C=CCOCC(O)CN(CCN1CCOCC1)Cc1ccc(OC)cc1 (stereo not drawn)	28	36
O=C(CC(O)(c1ccccc1)C(F)(F)F)N1CCN(Cc2ccc(Cl)cc2)CC1 (stereo not drawn)	13	14
Cc1ccc(S(=O)(=O)NCCn2nc(-c3ccccc3)ccc2=O)s1	-1	-1
CC(=O)N1c2ccccc2N=C2CC(C)(C)CC(=O)C2C1c1cccs1 (stereo not drawn)	7	7
CC1CCCCN1S(=O)(=O)c1ccccc1C(=O)O (stereo not drawn)	6	2
Cc1cc(-c2csc(Nc3ccccc3)n2)c(C)n1C	4	0
O=C(c1ccccc1NCc1ccccn1)N1CCCN2CCC[C@H]2C1	1	1
O=C1c2ccccc2C(=O)N1CNc1cccc(Cl)c1	-2	-8
Cc1nc2n(n1)CCCC2NC(=O)CCc1cccc(Cl)c1 (stereo not drawn)	0&3	-1&35
Fc1ccc(CNc2n[nH]c(=S)s2)cc1	2	2
